# gsp antag = gsp mutant antagonism; gsp-mutant cells, cAMP HTRF, 30 min; control for the full effect not named in the record; Potency, µM (series often up to 76.9 µM), for inactives: top-dose activity change, negative = inhibition, most hits filed as inhibitors; actives 0.4% (n = 340,000); active = falling curve of any shape with a large fitted effect; inconclusive = falling curve, mostly with a smaller effect; inactive = flat or rising curve; cell line not stated here;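 also: intracellular cAMP measured with PDE inhibitor Ro 20-1724 present during compound exposure; potency is read from the fitted curve at half-maximal effect; % is scaled to controls: 0 for no effect and ±100 for the full control effect; nearly all actives have a fitted effect of over 65% in size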
#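 Cells, 2000/well, grown 16–24 h in DMEM 10% FBS with 0.5 mg/ml G418, then compounds plus […] (300 uM addition stock), 30 min at 37C. cAMP read by HTRF (cAMP-d2 and anti-cAMP antibody-K in lysis buffer) after 30 min RT.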
# gsp ag = activates gsp, the McCune-Albright syndrome mutation | gsp mutant cells, cAMP HTRF, 30 min; control for the full effect not named in the record | Potency, µM (titrated, usually from 76.9 µM), without a hit: at the top dose activation (cAMP increase), actives largely listed as activators | AID 624287 | actives 0.13% (n = 340,000); active = well fitted activation curve with a large enough effect; inconclusive = small, poorly fitted or top-dose-only effect, or another doubt; inactive = no such curve, though single readings can be large or run the other way; cell line not stated here;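 also: phosphodiesterase inhibitor Ro 20-1724 added with compounds to block cAMP breakdown; potency is read from the fitted curve at half-maximal effect; nearly all actives have a fitted effect of over 60% in size; about a fifth of the inactives were tested at one dose only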
#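 Cells stably selected in G418 were plated at 2000/well, grown 16-24 hr, then given compounds in DMSO with the PDE inhibitor […] (300 uM solution added) for 30 min at 37C; cAMP was read by HTRF.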
# D2 PAM = human D2 receptor positive allosteric modulation | potentiation, % (test concentration not listed) | AID 624464 | P14416 | DiscoveRx D2 beta-arrestin cells, luminescence, 90 min; 100% = 57 uM dopamine signal | actives 0.23% (n = 360,000); active = potentiation of 50% or more; inconclusive = 30% to 50%; inactive = 30% or less;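 also: compound concentration not given in the record; tested on top of an EC20 dose of dopamine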
# Target sequence (P14416 whole entry, looked up): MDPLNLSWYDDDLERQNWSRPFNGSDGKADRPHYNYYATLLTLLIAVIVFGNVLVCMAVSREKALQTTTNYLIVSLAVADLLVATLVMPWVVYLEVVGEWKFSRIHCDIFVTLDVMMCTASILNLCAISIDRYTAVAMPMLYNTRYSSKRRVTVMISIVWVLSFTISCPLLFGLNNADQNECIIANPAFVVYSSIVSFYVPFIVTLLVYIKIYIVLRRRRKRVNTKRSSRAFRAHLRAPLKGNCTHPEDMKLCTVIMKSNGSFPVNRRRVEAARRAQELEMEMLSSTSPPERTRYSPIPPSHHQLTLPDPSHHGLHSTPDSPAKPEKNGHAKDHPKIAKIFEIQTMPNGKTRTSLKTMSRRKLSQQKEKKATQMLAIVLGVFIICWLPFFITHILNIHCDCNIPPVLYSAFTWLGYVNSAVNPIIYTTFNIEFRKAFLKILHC
#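 PathHunter D2 cells, attached overnight at 37 deg C, received compound in DMSO plus dopamine at EC20 (50 nM final) for 90 min at 37 deg C. Beta-arrestin recruitment was read as luminescence after 1 h with detection reagent at ambient temperature.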
# TRPV1 PAM = enhances activation of the human vanilloid receptor TRPV1; Q8NER1; TRPV1-expressing cells, Fluo-8 calcium influx, capsaicin EC20 potentiation; host cell line not named in the record; control for the full effect not named in the record; potentiation, % at 8.33 µM; actives 0.02% (n = 320,000); active means potentiation above 80%; inconclusive means 30% to 80%; inactive means below 30%; also: 0% is about no effect
#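 Cells expressing TRPV1 were dye-loaded with Fluo-8 and read kinetically: 10 s baseline, 3 min after compound (agonist portion), then 2 min after EC20 capsaicin (allosteric enhancer portion). Calcium-bound dye fluorescence at 480/520 nm.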
# Menin MLL FP FL = menin-MLL binding inhibition, fluorescein peptide; FP activity change, % at 61.4 µM; Fluorescence polarization, fluorescein-MLL peptide displacement from menin; 290,000 tested, under 10 active; inconclusive = falling polarisation curve, or a change in total fluorescence; inactive = total fluorescence flat and polarisation flat or rising; no compound was filed as active; the % refers to the polarisation; negative = inhibition;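 also: % of control where 0% means no effect; inhibitors lower the polarisation; unlabelled MLL peptide was the positive control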
# ClpP mod = qHTS Assay for Activators of ClpP | ATP-dependent Clp protease proteolytic subunit (Bacillus subtilis (strain 168)), P80244 | purified B. subtilis ClpP, FRET peptide cleavage, 20 min | Potency, µM (titrated, usually from 57.5 µM), inactives show at the top dose activity change, negative = active | actives 1.9% (n = 340,000); active = well fitted falling curve with a large enough effect; inconclusive = small, poorly fitted or top-dose-only effect; inactive = no such curve, though single readings can be large or run the other way; also: potency is read from the fitted curve at half-maximal effect; the source files actives as falling curves though it sought activators and does not explain the sign; nearly all actives have a fitted effect of over 65% in size; many hits overshoot -100%
# Target sequence (P80244 whole entry, looked up): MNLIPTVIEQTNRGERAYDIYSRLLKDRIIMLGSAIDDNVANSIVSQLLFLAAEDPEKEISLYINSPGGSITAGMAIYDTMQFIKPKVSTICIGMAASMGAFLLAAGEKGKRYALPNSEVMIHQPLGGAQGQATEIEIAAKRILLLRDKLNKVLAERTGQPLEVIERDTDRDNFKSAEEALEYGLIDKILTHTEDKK
#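 ClpP 10 microg/mL final, pH 8 Tris/KCl buffer with BSA, glycerol, Tween-20; compound pinned in; FRET-FV substrate; RT 20 min; Ex320/Em430; ΔFRET vs ADEP 5.8 microM, DMSO, no enzyme.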
# Sfp PPTase inh = inhibitors of Bacillus subtilis Sfp phosphopantetheinyl transferase. Q9F4F7. Biochemical Sfp PPTase activity, qHTS. Potency, µM, for the others: max response, negative = inhibition, actives largely listed as inhibitors. actives 3.5% (n = 310,000); active = well fitted inhibition curve with a large enough effect; inconclusive = small, poorly fitted or top-dose-only effect, or another doubt; inactive = no such curve, though single readings can be large or run the other way;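 also: the enzyme is Sfp with the accession as filed and its product quenches rhodamine fluorescence; potency is read from the fitted curve at half-maximal effect; 0% = enzyme reaction without inhibitor and -100% = no enzyme wells; top concentration of the series not given in the record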
#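 Reaction rates are the 30-min fluorescence difference (ex 525, em 598 nm) in wells containing 15 nM Sfp, 5 uM rhodamine-CoA and 12.5 uM BHQ-2-YbbR at pH 7.6 with 10 mM MgCl2.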
# * = called active by the depositor; u = inconclusive; x = no result given; & = joins results of further samples; [ ] = remark or other dose.
# Every second line gives: gsp antag	gsp ag	D2 PAM	TRPV1 PAM	Menin MLL FP FL	ClpP mod	Sfp PPTase inh
- CC(=O)c1nn(-c2cccc(Br)c2)cc1C(=O)c1ccc2ccccc2c1
 : 4%	-3%	1	-5	3.6	-2.2%	4%
- O=C(Nc1ccccc1Br)c1ccccc1-c1ccccc1
 : -10%	0%	-17	2	0.2	2.7%	12%
- COc1cccc(-n2nnnc2SCC(=O)NCc2ccc3c(c2)OCO3)c1
 : -3%	-28%	0	-2	6.2	0.4%	-2%
- CSc1ccc(/C=N/Nc2nc(C)cc(C)n2)cc1
 : -13%	8%[15.4 µM]	-24	5	0.2	-1.5%	9%
- COc1ccc(CNC(=O)c2ccccc2NS(C)(=O)=O)cc1
 : 7%	27%	2	-1	-1.8	x	3%
- CCNc1nnc(CSc2nc3ccccc3s2)s1
 : -15%	2%	-12	-18	0.3	3.4%	-2%
- COc1ccc(OC)c(-n2c(SCC(C)=O)nnc2-c2cccc(S(=O)(=O)N(C)C)c2)c1
 : -15%	28%	-14	24	-1.2	-3.1%	-11%
- N#Cc1c(C(F)(F)F)cc(-c2ccccc2)[nH]c1=O
 : u	u	6	x	-1.0	u	4%
- Cc1ccccc1-c1nnc2c3ccccc3c(C)nn12
 : 12%	11%	5	-25	2.8	-6.2%	-11%
- Cn1cnc([N+](=O)[O-])c1Sc1nnc(-c2cccnc2)n1C
 : -5%	21%	9	6	2.1	0.7%	8%
- CCc1ccc(N(C(=O)c2snc(C(N)=O)c2N)C(C(=O)NCC2CCCO2)c2cccs2)cc1 (stereo not given)
 : u	-24%	-1	-12	4.9	x	-23%
- O=C(Cc1ccccc1)Nc1ccc(N2CCOCC2)cc1N1CCOCC1
 : 10%	-41%[inhibitor]	11	16	-4.4	0.3%	u
- COc1ccc(/C=N/Nc2ncc(-c3ccccc3)cn2)c(OC)c1
 : 3%	0%	-13	0	-0.1	-5.9%	-1%
- Cc1cccc(NS(=O)(=O)c2nnc(NC(=O)C3CCCCC3)s2)c1
 : u	27%	4	-32	-4.1	1.1%&3.2%	14%
- C=CCNS(=O)(=O)c1nc(C)c(Cl)c(C)c1C#N
 : 0%	-20%	-3	-3	-0.2	-0.5%	-1%
- O=[N+]([O-])c1ccc(/C=N/Nc2nc(N3CCCC3)nc(N3CCCC3)n2)o1
 : -7%	4%	4	-7	4.3	-2.8%	-2%
- O=C(C1CC(=O)N(c2ccc(Cl)cc2)C1)N1CCOCC1 (stereo not given)
 : 8%	12%	-2	-23	1.4	x	11%
- Cc1cc(C)n2c3c(c(C#N)c2n1)CCCC3
 : 11%	u	-20	3	-25	-10%	13%
- CCOc1ccc(N2C(=O)NC(Cc3c[nH]c4ccccc34)C2=O)cc1 (stereo not given)
 : -10%	6%	-10	9	0.6	0.6%	16%
- CSc1nc2ccc(NC(=O)c3ccc(F)c(F)c3)cc2s1
 : -11%	-2%	-5	-18	0.7	x	9%
- COc1ccc(/C(C)=N/OCC(=O)Nc2nc3ccccc3s2)cc1OC
 : u	u	1	27	6.8	-2.1%	u
- COC(=O)CCCCCCCC(=O)Nc1nnc(C(F)(F)F)s1
 : -9%	7%[15.4 µM]	-1	u	-0.6	0.1%	15%
- Cc1ccc2nc(CCc3nc4ccc(C)cc4o3)oc2c1
 : -17%	-15%	9	-18	-0.2	0.4%	14%
- CCc1ccc2nc(SCC(=O)Nc3nnc(C)s3)c(C)cc2c1
 : -7%	-40%	-4	-1	3.2	-15%	29%
- COc1ccc(OCc2cc(C(=O)N3CCC(c4ccccc4)CC3)no2)c(Cl)c1
 : -10%	0%[15.4 µM]	-19	-2	x	-2.9%	5%
- CCCc1nn2c(=O)c(C(c3cccc(Cl)c3)c3c(O)nc4sc(CCC)nn4c3=O)c(O)nc2s1
 : -2%	-28%	-9	-4	9.6	-15%	-1%
- CC(C)c1ccccc1NC(=S)NC(=O)C1CCCCC1
 : -4%	u	-9	x	x	0.6%	x
- O=C(c1ccc2c(=O)n3c(nc2c1)CCCCC3)N1CCN(c2ccc([N+](=O)[O-])cc2)CC1
 : u	u	-6	-9	x	0.2%	1%
- COc1ccc(-n2c(=O)cc(N3CCOCC3)[nH]c2=O)cc1
 : 3%	-34%	0	-3	-0.3	0.0%	5%
- O=C(O)C1C2CCC(C2)C1C(=O)Nc1cc(F)ccc1F (stereo not given)
 : 16%	-25%	-6	-1	2.5	0.2%	1%
- CCN(CC)CC(=O)Nc1ccc(/C(C)=N/NC2=NCCN2)cc1
 : -13%	3%	-6	12	1.7	-0.7%	1%
- COc1ccc(NC(=O)CSc2nnc(Cc3cccn3C)n2-c2ccc(F)cc2)cc1OC
 : -15%	-40%[inhibitor]	-7	29	5.0	0.9%	u
- O=C(O)CSC(=S)N1CCCCC1
 : 5%	-2%	-3	14	11	-8.3%	-6%
- O=C(CC1C(=O)NCCN1Cc1c(F)cccc1Cl)NCCCN1CCCC1=O (stereo not given)
 : 3%	u	6	10	-8.1	-3.5%	0%
- CC1=C(C(=O)OC2CCCCCCC2)C(c2cc3c(cc2Br)OCO3)CC(=O)N1 (stereo not given)
 : -11%	3%	-22	0	2.6	-2.5%	12%
- O=C(O)/C=C\C(=O)Nc1ccccc1N1CCN(c2ccccc2)CC1
 : 1%	-30%	2	-5	-5.1	0.9%	u
- CCc1ccc(/C=N/n2c(C)cc(C)c(C#N)c2=O)cc1
 : -2%	-56%[inhibitor]	-18	-4	0.0	0.5%	8%
- Cc1cc(C)cc(OCC(=O)OCC(=O)NC2CCCCCCC2)c1
 : 13%	9%[15.4 µM]	-1	-14	x	-0.7%	x
- COCc1ccc(CN2CCCC(C(=O)Nc3ccc(-c4cccc(OC)c4)cc3)C2)o1 (stereo not given)
 : -7%	26%	-13	-3	x	-2.1%	-9%
- CN(C)CCNC(=O)C(=O)NCC1CCCN1S(=O)(=O)c1cccs1 (stereo not given)
 : -5%	4%[15.4 µM]	-8	-3	x	1.2%	x
- COCCCN(Cc1cccs1)S(=O)(=O)c1csc(C(N)=O)c1
 : 6%	u	-5	-3	x	2.2%	5%
- CCOc1ccc(CNC(=O)CCC(=O)N2Cc3ccccc3Oc3ncccc32)cc1
 : -9%	-20%	4	-1	x	0.6%&1.5%	9%
- Cc1ccc(C(=O)Nc2ccccc2C(=O)O)cc1S(=O)(=O)NCc1ccccc1
 : -14%	-8%	8	0	6.5	0.4%	-1%
- O=C(COC(=O)CN1C(=O)COc2ccccc21)NCc1ccc(F)cc1
 : 9%	-41%[inhibitor]	1	-25	x	0.7%	x
- O=C(NC1C2CC3CC(C2)CC1C3)c1ccc(N2CCNCC2)c([N+](=O)[O-])c1 (stereo not given)
 : 9%	11%[15.4 µM]	-7	x	5.8	x	9%
- Cc1nc(SCC(=O)N2CCNC2=O)c(C#N)c(C)c1C
 : x	u	-2	x	x	-2.5%	x
- Cc1ccc(C(=O)CNc2ccc(C)c(Cl)c2)cc1
 : -3%	27%	-37	-1	0.2	-2.7%	-4%
- O=C1N=C(N2CCN(Cc3ccccc3)CC2)S/C1=C/c1cccs1
 : -2%	32%[15.4 µM]	-14	8	6.3	x	8%
- Cc1cc(N)n(-c2ccc(S(=O)(=O)c3ccc(C(C)C)cc3)cc2)n1
 : 0%	-33%[inhibitor]	-4	-3	0.7	x	9%
- Cc1cc(-c2nc(C)c(-c3nnc(SCC(=O)Nc4ccccc4)n3C)s2)no1
 : 0%	-10%[15.4 µM]	-3	x	0.7	-1.6%	26%

# (listing goes on)
# Every second line gives: gsp antag	gsp ag	D2 PAM	TRPV1 PAM	Menin MLL FP FL	ClpP mod	Sfp PPTase inh
- COc1ccccc1/C=C/C(=O)N1CCN(S(=O)(=O)c2cc(C)ccc2C)CC1
 : -21%	u	-10	30	x	-17%	x
- COC(=O)c1cc(CSC(=N)N)ccc1OCCC(C)C
 : 9%	-5%[15.4 µM]	-18	7	-1.1	x	-74%
- CC(=O)N1CCN(S(=O)(=O)c2ccc(S(=O)(=O)NCC(C)C)cc2)CC1
 : 7%	0%	6	0	0.4	-0.9%	2%
- O=C(C(=O)N1CCc2ccccc2C1)c1cn(CC(=O)N2CCCCC2)c2ccccc12
 : -8%	-6%[15.4 µM]	-7	-4	2.8	-2.4%	-12%
- COc1cc(NC(=O)CN(C)Cc2ccc(OC(F)F)cc2)c(C)cc1[N+](=O)[O-]
 : u	-1%	-11	2	4.0	-1.1%	u
- O=C(COC(=O)c1ccc(S(=O)(=O)NCc2ccco2)cc1)Nc1ccccc1
 : 1%	5%[15.4 µM]	7	10	x	1.7%	x
- Cc1nc(=O)c(-c2ccccc2)c(C)n1-c1cccc(C(=O)O)c1
 : 0%	u	6	4	2.7	0.5%	11%
- CCN(CC)C(=O)OCc1c(-c2cccc(OC)c2)ncc2ccccc12
 : -9%	3%	-4	-33	x	-4.1%	x
- Cc1ccc(-c2nc(C#N)c(NCC3CCCO3)o2)cc1 (stereo not given)
 : 4%	-3%[15.4 µM]	-2	-10	0.5	x	-13%
- COc1ccc(N(C)C(=O)Nc2ccc3c(c2)nnn3C)cc1
 : -4%	1%	-3	-1	7.6	-17%	21%
- CCOc1ccc(S(=O)(=O)NCCCn2ccnc2)cc1NC(C)=O
 : 15%	-14%	-5	15	1.3	x	14%
- CCN(CC)C(=O)C(C)N(C#N)c1nc(SC)nc(N(C)C)n1 (stereo not given)
 : -1%	43%	-9	-7	-2.4	-0.2%	18%

# Reformatted: entries from further up.
compound	gsp antag	gsp ag	D2 PAM	TRPV1 PAM	Menin MLL FP FL	ClpP mod	Sfp PPTase inh
O=C(O)/C=C\C(=O)Nc1ccccc1N1CCN(c2ccccc2)CC1	1%	-30%	2	-5	-5.1	0.9%	u
CCc1ccc(/C=N/n2c(C)cc(C)c(C#N)c2=O)cc1	-2%	-56%[inhibitor]	-18	-4	0.0	0.5%	8%
Cc1cc(C)cc(OCC(=O)OCC(=O)NC2CCCCCCC2)c1	13%	9%[15.4 µM]	-1	-14	x	-0.7%	x
COCc1ccc(CN2CCCC(C(=O)Nc3ccc(-c4cccc(OC)c4)cc3)C2)o1 (stereo not given)	-7%	26%	-13	-3	x	-2.1%	-9%

# From PubChem BioAssay
